# Screening results: PubChem BioAssay, National Center for Advancing Translational Sciences (NCATS)
# Cruzain inh noDet: cruzain (T. cruzi) inhibition without detergent; purified cruzain, Z-FR-AMC fluorescence, no detergent; 200,000 compounds, 2.3% hits; P25779; Potency, µM, without a hit: max response, negative = inhibition, most hits filed as inhibitors;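 also: plate controls were enzyme without inhibitor for no effect and buffer without enzyme for full effect; nearly all actives have a fitted effect of over 40% in size; top concentration of the series not given in the record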
# Target sequence (P25779 123-467 limits assumed): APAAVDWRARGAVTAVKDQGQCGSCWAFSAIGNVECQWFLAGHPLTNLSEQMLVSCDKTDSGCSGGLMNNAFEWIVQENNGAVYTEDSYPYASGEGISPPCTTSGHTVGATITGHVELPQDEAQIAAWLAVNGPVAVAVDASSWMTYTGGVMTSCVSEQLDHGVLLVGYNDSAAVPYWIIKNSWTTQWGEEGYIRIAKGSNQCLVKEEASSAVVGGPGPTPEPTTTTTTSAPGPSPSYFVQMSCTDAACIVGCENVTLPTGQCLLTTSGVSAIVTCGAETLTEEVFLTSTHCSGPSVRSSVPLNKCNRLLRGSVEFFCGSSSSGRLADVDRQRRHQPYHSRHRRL
#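 Purified cruzain at 1.5 nM, pre-incubated 15 min with compound at room temperature in 100 mM sodium acetate pH 5.5, 5 mM DTT, 0.00005% Triton X-100. Reaction started with 2 uM Z-FR-AMC; AMC fluorescence increase over 60 s gives rate.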
# Marburg entry inh: blocks Marburg virus binding to or entry into cells; Marburg virus pseudotyped entry inhibition, cell reporter; control for the full effect not named in the record; about a third of the inactives were read at about 46 µM; Potency, µM (doses to about 37.8 µM), without a hit: at the top dose activity change, negative = inhibition, most hits filed as inhibitors; 300,000 compounds, 1.8% hits; active = well fitted inhibition curve with a large enough effect; inconclusive = small, poorly fitted or top-dose-only effect, or effect the other way; inactive = flat fitted curve, though single readings scatter; tested in HEK293 cells; about a fifth of its hits are not listed in these tables; also: % is scaled to controls: 0 for no effect and ±100 for the full control effect; luciferase read-out
# 2A StopGo: lowers the luciferase signal of an FMDV 2A StopGo reporter; human cells with a luciferase reporter of 2A StopGo recoding; control for the full effect not named in the record; Potency, µM (series often up to 57.9 µM), for inactives: at the highest dose signal change, negative = less light; 410,000 compounds, 1.2% hits; active = well fitted falling curve with a large enough effect; inconclusive = small, poorly fitted or top-dose-only effect; inactive = no such curve, though single readings can be large or run the other way; tested in HEK293T cells; also: % is scaled to controls: 0 for no effect and ±100 for the full control effect; nearly all actives have a fitted effect of over 45% in size; luciferase light after 4 h
# NS1 function inh: inhibitors of influenza NS1 protein function. Potency, µM (series often up to 46.1 µM), for inactives: at the highest dose activity, positive = more growth. 270,000 compounds, 0.4% hits. S. cerevisiae slowed by influenza A NS1, growth recovery by OD600. AID 2326; active means well fitted rising curve with a large enough effect; inconclusive means small, poorly fitted or top-dose-only effect; inactive means no such curve, though single readings can be large or run the other way; also: nearly all actives have a fitted effect of over 50% in size
#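 S. cerevisiae expressing influenza A NS1, grown in glucose, washed, then diluted 1:100 into pH 6.0 -URA galactose medium with 23 nl compound. Growth recovery read as OD600; NS1-free strain serves as control.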
# SARS PLP yeast: inhibitors of SARS-CoV papain-like protease in yeast; S. cerevisiae expressing SARS-CoV PLpro, growth rescue; control for the full effect not named in the record; 330,000 compounds, 0.19% hits; Potency, µM (series often up to 32.9 µM), for inactives: top-dose activity, positive = growth rescue; active means well fitted rising curve with a large enough effect; inconclusive means small, poorly fitted or top-dose-only effect; inactive means no such curve, though single readings can be large or run the other way; also: 0% is about no effect; nearly all actives have a fitted effect of over 55% in size; growth read by luminescence after 48 h
# Cruzain Triton: cruzain (T. cruzi) inhibition with detergent; P25779; purified cruzain, Z-FR-AMC fluorescence, 0.01% Triton; Potency, µM, for the others: max response, negative = inhibition, most hits filed as inhibitors; 200,000 compounds, 0.43% hits;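 also: plate controls were neutral wells for no effect and buffer without enzyme for full effect; nearly all actives have a fitted effect of over 40% in size; top concentration of the series not given in the record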
#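 15 min RT preincubation of 1.5 nM cruzain with compound, then 2 uM Z-FR-AMC added; kinetic AMC fluorescence, 60 s delta. Triton X-100 0.01%, pH 5.5.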
# Lassa entry inh: blocks Lassa virus binding to or entry into cells; Lassa virus pseudotype entry inhibition, cell reporter; control for the full effect not named in the record; Potency, µM (series often up to 37.9 µM), inactives show at the highest dose activity change, negative = inhibition, actives largely listed as inhibitors; 300,000 compounds, 1.2% hits; active means well fitted inhibition curve with a large enough effect; inconclusive means small, poorly fitted or top-dose-only effect, or effect the other way; inactive means flat fitted curve, though single readings scatter; tested in HEK293 cells; also: % is scaled to controls: 0 for no effect and ±100 for the full control effect; nearly all actives have a fitted effect of over 50% in size; luciferase read-out
# RE007 growth inh: less growth of the S. pombe RE007 Vpr strain; S. pombe RE007 Vpr strain, BacTiter-Glo ATP luminescence, 24 h; control for the full effect not named in the record; Potency, µM (titrated, usually from 92.2 µM), without a hit: at the highest dose activity change, negative = less growth; 360,000 compounds, 0.21% hits; AID 651644; active = well fitted falling curve with a large enough effect; inconclusive = small, poorly fitted or top-dose-only effect; inactive = no such curve, though single readings can be large or run the other way;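 also: % is scaled to controls: 0 for no effect and ±100 for the full control effect; nearly all actives have a fitted effect of over 50% in size; the assay follows cell death caused by Vpr and the record does not say whether a fall means rescue or toxicity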
#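 Fission yeast RE007 carrying one integrated HIV-1 vpr copy, seeded at OD 0.01 in PMG+AL medium with 23 nL pinned compound. Grown 24 h at 30 degrees; viability read by BacTiter-Glo luminescence after 5 min.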
# Active calls of the source: *; ? = inconclusive; . = not tested or not shown; & = joins results of further samples; [ ] = another dose, or the depositor's remark. Unless noted, calls follow the shape of the dose curve; as a rule, active = well fitted curve in the direction sought with a large enough effect; inconclusive = small, poorly fitted or top-dose-only effect, or another doubt; inactive = no such curve, though single readings can be large; an effect the other way counts as inactive or inconclusive. Potency is read from the fitted curve at half-maximal effect.
SMILES,Cruzain inh noDet,Marburg entry inh,2A StopGo,NS1 function inh,SARS PLP yeast,Cruzain Triton,Lassa entry inh,RE007 growth inh
O=C1c2ccccc2C(=O)N1Cc1nn2c(-c3ccc(Cl)cc3)nnc2s1,5%,21%&0%,4%,-41%,2%,-4.0%,22%,-1%
CC(C)c1ccc(NC2=NCC(=O)N2Cc2cccs2)cc1,.,?,20%,-7%,0%,.,?,-14%
Cc1cc(C)cc(OCCSc2nc3ccc(NC(=O)COc4ccccc4)cc3s2)c1,-1%,-21%[46.1 µM],-8%,.,.,0.4%,-20%[46.1 µM],.
CC(=O)Nc1ccc(NCN2C(=O)[C@@H]3[C@H]4CC[C@H](C4)[C@@H]3C2=O)cc1,-12%,20%,-10%,4%,-15%,0.0%,7%,-6%
Cc1ccc(-c2nn3c(-c4ccccc4)nnc3c3ccccc23)cc1,-1%,?,16%,.,.,-1.3%,-6%[46.1 µM],.
O=C(Nc1ccc2nc(SCc3ccccc3)sc2c1)c1cccc(F)c1,12%,27%[46.1 µM],-19%,.,.,-4.2%,-21%[46.1 µM],.
CCCCN(C)/C=N/c1c(C#N)cnn1-c1ccc(C)cc1,-5%,-5%,0%,-16%,-16%,-2.3%,-26%,12%
CC1(C)CC2(CCO1)N1CC3(C)CN2CC(C)(C1)C3O (stereo not given),-2%,12%,15%,-1%,2%,2.6%,12%,7%
Cc1ccc(-c2nnc3c4ccccc4c(C)nn23)cc1NC(=O)c1ccccc1,2%,-1%[46.1 µM],-8%,.,.,-0.5%,2%[46.1 µM],.
O=C(Nc1ccccc1)NC1CCS(=O)(=O)C1 (stereo not given),10%,-2%,-24%,-2%[9.22 µM],15%,-2.1%,3%,8%
CNC(=O)c1nc(C)n(-c2ccc(Cl)cc2Cl)n1,.,?,-6%,.,0%,.,12%,14%
CCc1nnc(SCC(=O)Nc2ccc(N3CCOCC3)cc2)n1C,.,2%[46.1 µM],0%,11%,-7%,.,15%,13%
CSc1sc(C(=O)OC(C)C)c2c1C(=O)CC(C)(C)C2,.,14%[46.1 µM],-8%,5%,0%,.,14%[46.1 µM],6%
COc1ccc(CNC(=O)CN2C(=O)NC(C)(c3ccc(Cl)cc3)C2=O)cc1 (stereo not given),.,-12%[46.1 µM],-2%,-2%,0%,.,-24%,-11%
CCn1c(C(=O)N2CCc3ccccc3C2)cc2oc3ccccc3c21,5%,-28%,-6%,9%,-15%,1.3%,-9%,-9%
O=C(O)CCNS(=O)(=O)c1ccc2c(c1)CCCC2,.,-22%[46.1 µM],5%,.,5%,.,-10%[46.1 µM],2%
CCN(CC(=O)Nc1cc(Cl)ccc1C)C(=O)c1ccc2c(=O)n3c(nc2c1)CCC3,.,12%,-7%,.,-16%,.,-9%[46.1 µM],2%
COc1ccc(-c2nnn(CC(=O)NCc3ccccc3)n2)cc1OC,10%,-27%,.,4%,?,1.2%,-22%,-4%
CCOc1ccc(CCNC(=O)CCCn2nc(C)c3c(C)n(-c4ccccc4)nc3c2=O)cc1,.,.,-15%,-2%,15%,.,.,1%
O=C(CC1SC(N2CCCC2)=NC1=O)Nc1ccc(C(=O)NCc2ccc(F)cc2)cc1 (stereo not given),.,-1%[46.1 µM],-2%,.,2%,.,7%,-8%
COc1ccc(C(C(=O)NCC2CCCO2)N(C(=O)Cn2nnc3ccccc32)c2ccc(NC(C)=O)cc2)cc1OC (stereo not given),.,-2%[46.1 µM],12%,8%,22%,.,-3%,-3%
CCn1cc2nc(SCC(=O)Nc3ccccc3C(F)(F)F)n(Cc3ccc(C)cc3)c(=O)c2n1,?,?,?,.,.,6.4%,?,.
O=C(NCCCN1CCOCC1)C(=O)N/N=C/c1ccc2c(c1)OCO2,.,25%[46.1 µM],2%,2%,0%,.,-2%,-4%
COC(=O)C1=C(C)N(C)C(=S)NC1c1ccc(Cl)cc1 (stereo not given),-9%,?,?,4%,?,-6.1%,?,-4%
COc1cccc(CNC(=O)c2ccc3c(=O)n4nc(Nc5ccccc5)sc4nc3c2)c1,-1%,.,-9%,.,.,2.1%,0%[46.1 µM],.
Cc1ccc(NC(=O)Cc2ccc3c(c2)OCCO3)cc1S(=O)(=O)N1CCCCC1,.,?,?,11%,0%,.,?,11%
CC(=O)CSc1nc2ccccc2s1,1%,0%,46%[activator],-7%,2%,0.4%,-5%,?
O=C(Nc1cc2c(oc1=O)CCCC2=O)c1ccccc1,2%,18%,55%[activator],-6%,-10%,-1.7%,21%,-9%
O=C(O)CCCNC(=O)c1ccc(NC(=O)Cc2ccc(Cl)cc2)cc1,.,3%[46.1 µM],2%,.,2%,.,0%[46.1 µM],1%
COc1ccccc1C(OC(=O)c1ccco1)C(=O)NCc1ccc(F)cc1 (stereo not given),.,16%[46.1 µM],1%,4%,-5%,.,3%,2%
O=C1CC(c2ccco2)CC(O)=C1C=Nc1ccc(Br)cc1 (stereo not given),?,0%,-21%,-1%,-10%,3.0%,-12%,?
O=C(Cn1c(=O)n(-c2ccccc2)c(=O)c2c3c(sc21)CCCC3)Nc1ccc(F)cc1F,-4%,?,-5%,.,.,-2.9%,-5%[46.1 µM],.
CCc1ccccc1NC(=O)c1ccc2[nH]c(C)c(C)c2c1,5%,.,36%[activator],.,.,2.3%,?,.
CCOC(=O)c1c(NC(=O)CN2C(=O)NC3(CCCC3)C2=O)sc(C)c1CC,.,-16%,-19%,.,4%,.,-7%,7%
COC(=O)CNC(c1ccccc1)c1cc(Br)ccc1N (stereo not given),.,?,-23%,6%,-1%,.,5%[46.1 µM],5%
NC(=O)CC(NC(=O)c1ccccc1)c1ccc(NCCc2ccc(Cl)cc2)c([N+](=O)[O-])c1 (stereo not given),.,.,0%,-3%,1%,.,.,-5%
CCOc1ccc(-n2c(O)c(/C=C3\C=Nc4ccccc43)c(=O)[nH]c2=O)cc1,.,.,?,10%,4%,.,.,-12%
Cc1ccc(C(=O)NCCCNC(=O)COc2ccccc2Cl)cn1,.,5%[46.1 µM],-2%,1%,4%,.,-5%,2%
O=[N+]([O-])c1ccc2nc(SCc3cn4cccnc4n3)[nH]c2c1,.,.,6%,1%,0%,.,.,-4%
COc1ccc(CCN2C(=O)c3oc4ccc(F)cc4c(=O)c3C2c2ccc(C(C)(C)C)cc2)cc1 (stereo not given),3%,-4%[46.1 µM],-6%,.,.,-1.0%,?,.
COc1ccc(NC(=O)C2CCN(S(=O)(=O)c3ccc4[nH]c(=O)ccc4c3)CC2)cc1Cl,-10%,.,-11%,.,.,1.8%,-4%[46.1 µM],.
CCCn1c(NC(=O)c2ccc(Br)cc2)nc2ccccc21,-5%,-9%,56%[activator],2%,-2%,-9.4%,1%,3%
O=C(CCC1N=C2c3ccccc3N=C(SCc3ccccc3F)N2C1=O)NCc1ccc(F)cc1 (stereo not given),3%,.,-15%,.,.,-0.5%,?,.
CS(=O)(=O)NC1c2cccc3cccc(c23)C1N1CCOCC1 (stereo not given),-8%,17%,.,1%,8%,0.0%,-4%,5%
Cc1ccc2c(Cl)c(C(=O)NC3CC3)sc2c1,.,.,18%,-16%,-9%,.,.,-10%
CC(NC(=O)Cc1ccc([N+](=O)[O-])cc1)c1ccc2c(c1)OCO2 (stereo not given),.,-12%[46.1 µM],-18%,-8%,-3%,.,-6%,-6%
O=C(NCCN1CCN(C(=O)c2ccccc2Cl)CC1)C(=O)NCc1ccccc1,.,-3%[46.1 µM],-2%,1%,-2%,.,0%,10%
O=S(=O)(Nc1nc2ccccc2nc1Nc1ccc2c(c1)OCO2)c1ccccc1,?,-4%,-11%,1%,?,-3.4%,-9%,-6%
CCc1ccc(CN(C)Cc2nc(-c3cccc(Cl)c3)no2)nc1,.,-3%[46.1 µM],0%,-12%,3%,.,-24%,0%
O=C(CSc1n[nH]c(-c2cccnc2)n1)Nc1ccccc1[N+](=O)[O-],.,-9%[46.1 µM],6%,-6%,9%,.,-2%[46.1 µM],-18%
CN(CC(=O)Nc1ccc(F)cc1)c1ccc(S(=O)(=O)N2CCCCC2)cc1[N+](=O)[O-],-10%,?,-28%,24%,16%,-2.6%,?,16%
CC1CCCCC1NC(=O)c1ccc(S(=O)(=O)NCc2ccco2)cc1 (stereo not given),-2%,-11%,.,4%,-4%,0.3%,0%,0%
Cc1c(Cl)cccc1NC(=O)c1cc(S(=O)(=O)N2CCOCC2)cn1C,.,.,0%,5%,-3%,.,.,3%
C=CCn1c(P(C)(=O)O)nc2ccccc21,4%,2%&2%,-7%&0%,-1%,2%&-2%,-1.4%,9%,-7%&-7%
COC(=O)c1ccc(N2C(=O)CC(N3CCC(n4c(=O)[nH]c5ccccc54)CC3)C2=O)cc1 (stereo not given),6%,?,?,-228%,-26%,1.6%,2%,14µM*
CC(C)CN1C2CCCC1CC(NC(=S)NCc1ccco1)C2 (stereo not given),.,?,-11%,.,4%,.,-6%[46.1 µM],-16%
CC(C)CCC(CCNCc1ccccn1)c1ccc2c(c1)OCO2 (stereo not given),.,.,-11%,2%,0%,.,.,0%
CCCc1nnc(NC(=O)CCC(=O)NCc2ccccc2OC)s1,-6%,5%,-2%,0%,5%,6.7%,16%,-6%
Cc1cccc(OCC(=O)N(Cc2cccs2)C2CCS(=O)(=O)C2)c1 (stereo not given),1%,-6%,-22%,-4%,13%,3.7%,5%,-19%
Cn1c(O)c(C=NC2CCCCCC2)c(=O)[nH]c1=S,.,.,3%,2%,0%,.,.,12%
Cc1cccc(-c2nc(CS(=O)CC(=O)NCCc3ccccc3)c(C)o2)c1 (stereo not given),.,-10%[46.1 µM],0%,4%,0%,.,-1%[46.1 µM],-11%
COc1cccc(Cc2nc3ccccc3nc2SCC(=O)Nc2cccc(C)c2)c1,-6%,.,1%,.,.,-2.6%,-4%[46.1 µM],.
